Screens: PubChem BioAssay, ICCB-Longwood Screening Facility, Harvard Medical School
Mtb MbtI inh = MbtI salicylate synthase inhibitors, primary screen, biochemical, fluorescence intensity. P9WFX0. purified MbtI enzyme, fluorescence intensity read-out. inhibition, %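 (about 17 µg/mL by stock and volumes)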. actives 0.89% (n = 100,000). AID 493033, 2011;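 active = above 50% in both replicates, above 80% if mildly self-fluorescent; inactive = the rest, strongly fluorescent compounds included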;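 note: 0% = mean of negative and 100% = mean of positive controls; one replicate is shown; some compounds called inactive have numbers as strong as hits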
Polio RdRp inh = poliovirus RdRp elongation inhibitors, primary screen, biochemical, fluorescence polarization, total intensity; poliovirus polymerase elongation; active compounds read low; AID 588519, 2011; actives 0.66% (n = 150,000); Genome polyprotein (Poliovirus type 1 (strain Mahoney)), P03300; % elongation, % (compound at 16.7 µg/mL); in the data active = % elongation below about 90%; note: some results filed as inactive read as strong as hits
Target sequence (P03300 1749-2209 limits assumed): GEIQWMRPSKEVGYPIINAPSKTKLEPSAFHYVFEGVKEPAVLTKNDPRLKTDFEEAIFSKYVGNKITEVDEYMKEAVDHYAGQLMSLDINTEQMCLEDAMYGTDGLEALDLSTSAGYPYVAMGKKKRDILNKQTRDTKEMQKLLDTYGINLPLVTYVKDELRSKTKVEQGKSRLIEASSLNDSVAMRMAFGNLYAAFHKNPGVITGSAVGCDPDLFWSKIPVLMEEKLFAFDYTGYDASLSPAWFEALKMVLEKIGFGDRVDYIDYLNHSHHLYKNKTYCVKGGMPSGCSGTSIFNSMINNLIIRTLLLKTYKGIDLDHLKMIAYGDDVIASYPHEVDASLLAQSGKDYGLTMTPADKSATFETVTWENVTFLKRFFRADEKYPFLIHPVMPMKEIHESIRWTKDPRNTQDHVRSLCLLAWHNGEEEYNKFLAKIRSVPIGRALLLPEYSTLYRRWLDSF
Mtb MenB inh = M. tuberculosis MenB inhibitors, primary screen, biochemical, absorbance | MenB enzyme assay, absorbance read-out; some hits fall short of the stated cut | inhibition, %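 (about 12 µg/mL by stock and volumes)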 | AID 540299, 2011 | actives 0.43% (n = 100,000) | 1,4-dihydroxy-2-naphthoyl-CoA synthase (Mycobacterium tuberculosis (strain ATCC 25618 / …;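 active = mean of two replicates above 30%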;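 note: 0% = no compound and 100% = wells with inactive enzyme; the first replicate is given; strong numbers were not always called active; inactives centre near -10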
Target sequence (P9WNP5 whole entry, looked up): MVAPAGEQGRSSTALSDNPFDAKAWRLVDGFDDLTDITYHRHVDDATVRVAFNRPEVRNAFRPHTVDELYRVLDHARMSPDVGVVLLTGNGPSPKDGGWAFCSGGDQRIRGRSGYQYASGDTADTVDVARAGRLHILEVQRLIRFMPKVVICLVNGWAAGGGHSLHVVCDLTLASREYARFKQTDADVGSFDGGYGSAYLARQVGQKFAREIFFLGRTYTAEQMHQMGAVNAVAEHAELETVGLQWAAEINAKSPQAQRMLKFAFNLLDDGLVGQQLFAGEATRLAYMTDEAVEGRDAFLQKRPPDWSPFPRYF
Polio RdRp inh intensity = further read-out of Polio RdRp inh, marked with its call; % elongation; measured here: total intensity read-out; formula for this scale not given here;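 total fluorescence in place of polarization; lower means less elongation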
* hit, by the source's call; i = inactive; . = no result given; & = joins results of further samples.

SMILES	Mtb MbtI inh	Polio RdRp inh	Polio RdRp inh intensity	Mtb MenB inh
Cc1nn(-c2ccccc2)c2sc(C(=O)NCCc3ccc(S(N)(=O)=O)cc3)cc12	77.8	101.0	105.0	-108.2
Cc1cc(=O)n(C(N)=S)[nH]1	27.9	103.0	104.0	-10.9
Cc1ccc(C2=NCN(c3ccc(C(=O)O)cc3)C(=S)N2)cc1	1.3	98.0	96.0	-12.9
CCC(=O)/C=C(\O)c1ccc(Br)cc1	.	115.0	108.0	-4.6
CCOC(=O)c1cnc(NNC(=O)C(F)(F)F)nc1C(F)(F)F	8.6	101.0	105.0	-14.4
Nc1ccc2nc(-c3ccc(N)c(Cl)c3)[nH]c2c1	i	99.0	101.0	-6.0
O=C1CCC(C(=O)OCC(=O)Nc2ccc(N3CCOCC3)cc2)=NN1	-5.4	102.0	106.0	5.4
COc1ccc(/C=C2\CCC(C3CCCC3)C2=O)cc1Cn1cccn1 (configuration not stated)	5.2	101.0	97.0	1.4
CC(C)COc1ccc(S(=O)(=O)n2cc(F)c(=O)[nH]c2=O)cc1	-4.2	103.0	109.0	1.3
CC1(C)N=C(C(=O)c2ccccc2)N(O)C1(C)O (configuration not stated)	0.5	103.0	103.0	-15.1
Cc1cccc(C(=O)N2CCC(C)CC2)c1	-1.4	100.0	102.0	1.3
Cc1nc(/C=C(/N)C#N)cn1-c1ccccc1	.	106.0	110.0	-19.5
O=C(CSC(=S)N1CCOCC1)c1cc(Br)cc(Br)c1O	.	105.0	109.0	-6.3
CCCCNS(=O)(=O)c1ccc2nc(SCCC)[nH]c2c1	2.8	103.0	96.0	-19.8
CC(OC(=O)c1ccc2ccccc2c1O)C(=O)N1CCc2ccccc21 (configuration not stated)	18.2	101.0	101.0	3.8
COc1cc2c(C(=O)NC3CCCC(C)C3C)cn(C)c(=O)c2cc1OC (configuration not stated)	-11.7	104.0	103.0	-19.1
c1ccc2c(c1)NC(c1ccc3c(c1)CCO3)n1cccc1-2 (configuration not stated)	115.4	103.0	98.0	6.0
CC(C)(C)n1ncc2c(=O)n(CC(=O)NC3CCCC3)cnc21	12.6	101.0	97.0	-5.0
CCN(CC)c1ccc(NC(=O)Nc2ccc(OCc3ccccc3)cc2)cc1	-3.5	100.0	103.0	-1.9
COc1cc(C2C(C#N)=C(N)Oc3n[nH]c(C(F)(F)F)c32)ccc1OCC(N)=O (configuration not stated)	-4.3	103.0	104.0	-8.1
CCCN(Cc1cccs1)C(=O)Nc1ccccc1CC	-14.9	103.0	100.0	-16.9
Oc1ccc2ccccc2c1CN1CCOCC1	i	101.0	101.0	-20.7
CNC(=O)C1CCC(CNS(=O)(=O)c2ccc(C)cc2)CC1 (configuration not stated)	-13.2	102.0	98.0	-79.8
CCCC1NC(=S)N(c2ccccc2)N1 (configuration not stated)	97.8*	101.0	101.0	7.5
Cc1ccc(Cn2ccsc2=NC(=O)CSc2nnc(-c3ccc(Cl)cc3)o2)cc1	0.5	104.0	110.0	3.5
CC(=O)N1CCOc2cc(S(=O)(=O)N3CCCCC3C)ccc21 (configuration not stated)	-4.7	102.0	102.0	6.9
C=CCn1c(Cl)c(/C=N/NC(N)=O)s/c1=N\S(=O)(=O)c1cccs1	-1.5	103.0	100.0	-27.0
CN1CCN(CCCN2c3ccccc3Sc3ccc(C(F)(F)F)cc32)CC1	-7.3&-16.6&-21.3	102.0&100.0&103.0&99.0	103.0&100.0&100.0&103.0	-8.1&-15.1&8.0
CC1COc2c(N3CCN(C)CC3)c(F)cc3c(=O)c(C(=O)N4CCN(c5ncccn5)CC4)cn1c23 (configuration not stated)	25.6	101.0	108.0	-23.8
O=C(CSc1nc2ccccc2c(=O)n1-c1ccccc1F)NC1CC1	-9.4	102.0	101.0	.
C=CCOC(=O)C1C2NC(=S)N(CCCOC)C1(C)Oc1c(OCC)cccc12 (configuration not stated)	-0.9	103.0	101.0	-3.6
O=C(NCCc1ccc(Cl)cc1)C1CCN(C(=O)NC2CCCCC2)CC1	-8.7	103.0	102.0	-42.0
N#CC(C#N)=CNc1cc(C(F)(F)F)ccc1N1CCOCC1	-4.3	102.0	103.0	-21.1
O=S(=O)(Cc1nc2ccccc2[nH]1)c1ccccc1	0.4	100.0	101.0	.
COC(=O)Cn1nnnc1-c1ccc(C)cc1	-9.6	101.0	98.0	-32.0
COc1ccc(C(=O)NCc2nnc(SC)n2-c2ccc(OC)cc2)cc1	-3.9	101.0	102.0	-7.7
CCOc1cc(C(=O)NCCN(C)C)cc(OCC)c1OCC	2.4	104.0	103.0	-13.3
c1cn2cc(Cc3nnc4n3CCCCC4)nc2s1	10.2	99.0	109.0	-16.4
CC(C)(C)OC(=O)N1CCC(CNS(=O)(=O)c2cccc3nonc23)CC1	-3.5	100.0	99.0	-13.4
CCOCC(=O)NCc1ccc(OC)cc1	-5.5	100.0	104.0	9.8
CC1=CC(=C(C#N)C#N)C=C(C)N1CCC(C)C	0.5	101.0	105.0	-20.2
CC1=CC(C)C2(COC(c3cccnc3)OC2)C(C)C1 (configuration not stated)	-10.6	102.0	104.0	.
COC(=O)c1ccc2c(c1)N(Cc1nc(-c3cccc(C)c3)oc1C)C(=O)C1CCCN21 (configuration not stated)	6.5	101.0	106.0	-15.4
COc1cccc(-n2c(=O)c3ccccc3n3c(SCCN(C)C)nnc23)c1	47.0	98.0	88.0	2.2
C=CCn1c(O)c(N=N)c2ccccc21	-1.7	103.0	103.0	-12.3
CC(NC(=O)CN1CCc2sccc2C1c1cccs1)c1ccc2c(c1)OCCO2 (configuration not stated)	-0.2	105.0	106.0	-17.5
CCOc1ccc2ccccc2c1/C=C1\C(=O)NC(=S)N(c2cccc(Cl)c2Cl)C1=O	.	100.0	98.0	-32.2
CCCC(=O)NCCc1cc2ccc(OC)cc2[nH]c1=O	76.7	99.0	104.0	-3.5
Cc1cccc(-c2nnn3c2nc(N2CCN(C(=O)c4ccco4)CC2)c2cc(Cl)ccc23)c1	1.8	101.0	104.0	-11.3
CN1/C(=C\C(=O)CN2CCN(c3ccc(F)cc3)CC2)C(C)(C)c2ccccc21	16.6	106.0	98.0	-13.6
O=C1CCc2cc(S(=O)(=O)N3CCCC3C(=O)NC3CCCCC3)ccc2N1 (configuration not stated)	-4.9	102.0	103.0	-23.0
COc1ccc(NC=O)c(CS(=O)(=O)c2ccc(C)cc2)n1	.	100.0	103.0	-11.7
C=CCN1C(=O)C2(c3ccccc31)c1c(oc3ccccc3c1=O)C(=O)N2CCCO (configuration not stated)	13.8	102.0	97.0	12.3
COc1ccc2occ(C(=O)c3coc4ccc(O)c(CN(C)C)c34)c2c1	1.1	103.0	101.0	-18.6
CCC(CCC(=O)Nc1nccs1)C(=O)O (configuration not stated)	-2.6	104.0	103.0	-12.2
COc1cc(/C=C/C(=O)OCC(=O)Nc2c(C)n(C)n(-c3ccccc3)c2=O)ccc1OCC#N	70.8	98.0	100.0	-14.8
COc1ccc(-c2nn(C)c3sc(C(=O)NCC4(c5ccccc5)CCCC4)cc23)cc1OC	110.6	99.0	96.0	-20.8
CCOC(=O)c1cnc2cc(C(F)(F)F)ccc2c1N1CC(C)CC(C)C1 (configuration not stated)	-12.9	103.0	108.0	-30.5
CC1C/C(=N/NC(=O)Cc2cn3ccsc3n2)CC(C)(C)C1 (configuration not stated)	3.8	107.0	101.0	2.0
O=C(NCCn1cc(SCC(=O)N2CCOCC2)c2ccccc21)c1cccs1	0.6	99.0	105.0	-16.2

Complete entries from above. Values in the order: Mtb MbtI inh, Polio RdRp inh, Polio RdRp inh intensity, Mtb MenB inh
COc1ccc2occ(C(=O)c3coc4ccc(O)c(CN(C)C)c34)c2c1 is listed as 1.1, 103.0, 101.0, -18.6
COc1cc(/C=C/C(=O)OCC(=O)Nc2c(C)n(C)n(-c3ccccc3)c2=O)ccc1OCC#N is listed as 70.8, 98.0, 100.0, -14.8

Looked up above:
Polio RdRp inh intensity, COc1ccc(C(=O)NCc2nnc(SC)n2-c2ccc(OC)cc2)cc1 : 102.0
Mtb MenB inh, Cc1cccc(-c2nnn3c2nc(N2CCN(C(=O)c4ccco4)CC2)c2cc(Cl)ccc23)c1 : -11.3
Polio RdRp inh intensity, CCCC1NC(=S)N(c2ccccc2)N1 (configuration not stated) : 101.0
Polio RdRp inh, O=C(CSc1nc2ccccc2c(=O)n1-c1ccccc1F)NC1CC1 : 102.0
Mtb MbtI inh, CC(C)COc1ccc(S(=O)(=O)n2cc(F)c(=O)[nH]c2=O)cc1 : -4.2

The list goes on:
SMILES	Mtb MbtI inh	Polio RdRp inh	Polio RdRp inh intensity	Mtb MenB inh
CCCn1c(-c2ccc(OC)c(OC)c2)nc2ccccc21	.	99.0	104.0	-3.0
O=C(NC1C2CC3CC(C2)CC1C3)c1cc(F)c(F)cc1Cl (configuration not stated)	.	110.0	113.0	-7.6
O=C(CSc1n[nH]c(=O)n1Cc1ccco1)Nc1ccccc1	-11.3	108.0	105.0	2.7
O=C1CCCCC1Sc1nc2ccccc2[nH]1 (configuration not stated)	-6.1	99.0	95.0	.
COc1ccccc1N1CCN(C(C)C(=O)N(C)Cc2ccccc2)CC1 (configuration not stated)	-7.8	106.0	104.0	-32.6
COc1ccc(-c2cc(C(=O)NCCCn3ccnc3)c3ccccc3n2)cc1	-110.2	97.0	95.0	.
CCC(CC)NC(=O)c1ccc2c(c1)OCCO2	-11.5	103.0	109.0	-11.3
O=C1CC2CCCC(CN1)N2CC(=O)N1CCCCCC1 (configuration not stated)	-0.7	101.0	102.0	-15.7
O=C(Nc1ccc(Br)cc1F)c1ccc2c(c1)N(Cc1ccccc1)C(=O)CS2=O (configuration not stated)	6.1	100.0	101.0	-24.4
CCNC(=O)C1CC(=O)OC12CCCCC2 (configuration not stated)	.	106.0	106.0	-17.9
N#CC1=C(N)N(c2cccc(C(F)(F)F)c2)C(=O)C1	3.9	103.0	108.0	-10.1
CCOC(=O)N1CCN(C(=O)C(CC(C)C)NS(=O)(=O)c2ccc3c(c2)oc(=O)n3C)CC1 (configuration not stated)	-0.7	102.0	103.0	-1.3
Cc1ccc(COc2coc(CN3CCN(Cc4ccccc4)CC3)cc2=O)cc1	7.4	100.0	108.0	4.7
O=C(c1ccc(-c2ccccc2)cc1)N1CCCC1	-14.6	100.0	105.0	5.0
O=C1CCC(C(=O)OCC(=O)c2ccccc2)N1 (configuration not stated)	-2.4	102.0	105.0	.
O=c1[nH]c2ccccc2c(=O)n1CCNc1cccc(Cl)c1	-1.1	103.0	107.0	-6.3
O=C(NNc1ncnc2c1cnn2-c1ccc(Cl)cc1)c1cccs1	-13.1	101.0	103.0	-46.3
CC(C)CC(c1ccccc1)C(O)c1ccccc1 (configuration not stated)	-17.8	111.0	110.0	0.9
NCc1ccncc1	-3.4	104.0	105.0	-0.2
NS(=O)(=O)c1ccc(CCN(Cc2nc3ccsc3c(=O)[nH]2)Cc2nc3ccsc3c(=O)[nH]2)cc1	1.8	.	.	-43.6
Cc1ccccc1N1C(=O)C(Oc2ccc(Cl)cc2)C1CNC(C)(C)C (configuration not stated)	2.4	101.0	104.0	-5.8
O=C(CSc1nnc(NC(=O)C2CC(=O)N(c3ccc(F)cc3)C2)s1)NCC1CCCO1 (configuration not stated)	1.9	99.0	107.0	-16.0
COCCN1C(=O)/C(=C/c2cc(C)n(-c3ccncc3)c2C)C(=O)N(c2ccccc2)C1=O	13.6	96.0	103.0	-17.0
COC(=O)c1ccccc1NC(=S)N(Cc1ccco1)Cc1cc2cc(C)ccc2[nH]c1=O	12.1	104.0	100.0	-71.7
CS(=O)(=O)Nc1cccc(C2=NN(C(=O)CCC(=O)O)C(c3cccs3)C2)c1 (configuration not stated)	6.3	97.0	94.0	-0.6
CC1(C)OC(=O)C(=Cc2c[nH]c3ccccc23)C(=O)O1	6.4	100.0	104.0	-84.6
CC1CCCCN1C(=S)NCCc1ccccc1 (configuration not stated)	.	105.0	114.0	-21.9
Cc1ccc(Cc2nnc(C(=O)NCCC3=CCCCC3)o2)cc1	-8.1	102.0	108.0	-12.7
COc1ccccc1OC(=O)c1ccc2c(c1)OCCO2	-13.1	103.0	109.0	-15.2
COc1ccc(-c2c(C(F)(F)F)nn(C)c2NC(=O)NC(C)(C)C)cc1	1.5	99.0	99.0	-12.4
Cc1ccc(C(C)N)cc1C (configuration not stated)	1.9	102.0	106.0	-62.5
O=C(CC12CC3CC(CC(C3)C1)C2)Nc1c(O)c2ccccc2oc1=O	12.1	104.0	98.0	13.8
Cc1cc2c(cc3c(SCC(=O)Nc4ccccc4F)nncn32)o1	7.4	100.0	102.0	-57.8

Five compounds from above, sorted by formula weight, low to high.
SMILES	Mtb MbtI inh	Polio RdRp inh	Polio RdRp inh intensity	Mtb MenB inh
CC1CCCCN1C(=S)NCCc1ccccc1 (configuration not stated)	.	105.0	114.0	-21.9
CC1(C)OC(=O)C(=Cc2c[nH]c3ccccc23)C(=O)O1	6.4	100.0	104.0	-84.6
O=C(CC12CC3CC(CC(C3)C1)C2)Nc1c(O)c2ccccc2oc1=O	12.1	104.0	98.0	13.8
COc1ccc(-c2c(C(F)(F)F)nn(C)c2NC(=O)NC(C)(C)C)cc1	1.5	99.0	99.0	-12.4
CS(=O)(=O)Nc1cccc(C2=NN(C(=O)CCC(=O)O)C(c3cccs3)C2)c1 (configuration not stated)	6.3	97.0	94.0	-0.6
